# From PubChem BioAssay
# HSD17B inh – inhibitors of human HSD17B10 dehydrogenase | AID 893 | actives 7.6% (n = 75,000) | Potency, µM (titrated, usually from 57.1 µM), without a hit: at the highest dose activity change, negative = inhibition, most hits filed as inhibitors | recombinant HSD17B10, NADH fluorescence kinetic; many of its hits are not listed in these tables | Q99714; active = well fitted inhibition curve with a large enough effect; inconclusive = small, poorly fitted or top-dose-only effect; inactive = no such curve, though single readings can be large or run the other way;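 note: the protocol describes HADH2 (HSD17B10) and not the HSD17B4 of the title; nearly all actives have a fitted effect of over 70% in size; most hits overshoot -100% by far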
#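 His-tagged E. coli-expressed HADH2 at 20 nM in 100 mM Tris-HCl pH 9.0 with 0.01 % Tween-20, preincubated 15 min with compound at room temperature. Reaction with 1 mM NAD+ and 90 uM beta-hydroxybutyryl coenzyme A; NADH fluorescence (360/450 nm) read kinetically over 4 min, last minus first point.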
# * marks the source's active call; other numbers are inactive results; ? = inconclusive; & = joins results of further samples; [ ] = another dose, or the depositor's remark. % is set by controls: 0 for no effect and ±100 for the full control effect; potency is the fitted concentration of half-maximal effect. An excerpt. The share of hits here may be higher or lower than overall.
SMILES,HSD17B inh
Cc1cc2c(nc1C)CCCN2C[C@H](O)CN1CCCc2nc(-c3ccc(Br)cc3)ccc21,-2%&-3%[11.4 µM]
COc1cc(NC(=O)C2CC2)c(C(=O)O)cc1OC,-19%
COc1ccccc1OCC(=O)NCCc1nc2ccccc2[nH]1,3%
Cc1ccc(C(CC(=O)N2CCCC2)c2ccccc2)c(O)c1C (stereo unspecified),-4%
CCOC(=O)c1oc2ccccc2c1NC(=O)COc1ccc(F)cc1,-26%
COc1cccc(C2=NOC(C(=O)Nc3cccc(C(C)=O)c3)C2)c1 (stereo unspecified),2%
O=C(CSCc1ccc(F)cc1)NC1CCCC1,-2%
O=C(NCCCN1CCCCCC1)[C@@H](c1ccccc1)C1CCCCC1,11%
CN(C)C(=O)c1ccc(-c2ccc3ncnc(N(C)Cc4ccco4)c3c2)cc1,?
O=[N+]([O-])c1ccc(CCO)cc1,-1%

# Structural class: the entries above containing an aryl methoxy group
SMILES,HSD17B inh
COc1cc(NC(=O)C2CC2)c(C(=O)O)cc1OC,-19%
COc1ccccc1OCC(=O)NCCc1nc2ccccc2[nH]1,3%
COc1cccc(C2=NOC(C(=O)Nc3cccc(C(C)=O)c3)C2)c1 (stereo unspecified),2%

# (cont.)
SMILES,HSD17B inh
CCS(=O)(=O)c1nc2ccccc2n1Cc1ccccc1Cl,-4%
COc1ccccc1Nc1nc(N)nc(CSCCO)n1,8%
CCOC(=O)Cn1c2c(c(=N)c3c1CCC3)CCC2,7%
Cc1c(C(=O)O)sc2ncnc(N3CCCCC3C)c12 (stereo unspecified),-11%
Cc1cc(NC(=O)CSc2ccc3nnc(-c4ccc(F)cc4)n3n2)no1,32µM*
COc1cc2nc3c(c([Si](C)(C)C(C)(C)C)c2cc1OC)Cn1c-3cccc1=O,2µM*
CCCCN(C)CCNC(=O)Cn1c(=O)sc2ccccc21,6%
O=C(c1cccc(C(=O)N2CCN(c3ccc(F)cc3)CC2)c1)N1CCN(c2ccc(F)cc2)CC1,4%
O=C(NCC1CCCO1)C1CCN(S(=O)(=O)Cc2ccccc2)CC1 (stereo unspecified),-7%
COc1ccc2cc(S(=O)(=O)N3CCN(C)CC3)ccc2c1,-29%
O=C(NC1CCCCC1)N(Cc1ccc(F)cc1)Cc1nc2ccccc2c(=O)[nH]1,-8%
Cc1ccc(-c2nc3ncccn3c2NC2CCCC2)o1,-6%
CCCCCCCNS(=O)(=O)c1cccc2c(Cl)cccc12,-11%
COC(=O)c1ccc(NS(=O)(=O)c2ccc(OC)cc2)cc1,1%
CC(=O)c1ccc(NC(=O)C2CCCNC2=O)cc1 (stereo unspecified),4%
CC1Cc2ccccc2N1C(=O)CSC1=NCCS1 (stereo unspecified),-16%
COc1cccc(-c2nc3n(n2)C(c2ccccc2Cl)C(C(N)=O)=C(C)N3)c1 (stereo unspecified),2%
COc1nnc(-c2ccc(N3CCCCC3)c(N)c2)c2ccccc12,-8%
CC(C)(C)n1nnnc1C(c1cccs1)N1CCCC2(CCCCC2)C1 (stereo unspecified),9%
CCc1nnc(-n2nc(C)cc2-c2ccccc2)n1N,3%

# Four of the compounds above, with each value named:
mol: CCc1nnc(-n2nc(C)cc2-c2ccccc2)n1N
  HSD17B inh: 3%
mol: O=C(NC1CCCCC1)N(Cc1ccc(F)cc1)Cc1nc2ccccc2c(=O)[nH]1
  HSD17B inh: -8%
mol: CCCCCCCNS(=O)(=O)c1cccc2c(Cl)cccc12
  HSD17B inh: -11%
mol: CC(C)(C)n1nnnc1C(c1cccs1)N1CCCC2(CCCCC2)C1 (stereo unspecified)
  HSD17B inh: 9%

# Next section:
SMILES,HSD17B inh
CCCCn1c(-c2ccsc2)nc2c1c(=O)[nH]c(=O)n2CCC,25µM*
CCCOC(=O)C1=C(C)NC2=C(C(=O)C(C(=O)OC)C(C)C2)C1c1ccc(N(C)C)cc1 (stereo unspecified),-11%
CC(C)Oc1ccc(NC(=O)C2CCCNC2=O)cc1 (stereo unspecified),11%
CCc1ccc2[nH]c(=O)c(CN(Cc3ccc(OC)cc3)Cc3nnnn3CCOC)cc2c1,-11%
CN(C)S(=O)(=O)c1cccc(-c2nnc(SCc3ccc4c(c3)OCCO4)o2)c1,-8%
CCN(CCO)C1CC(=O)N(c2ccccc2C)C1=O (stereo unspecified),-10%
CC1CCCN(C(=O)C2CCN(CC3CC=CCC3)CC2)C1 (stereo unspecified),8%
CC(=O)N=c1cccc(NC(C)=O)n1O,5%
c1ccn2c(Cc3nnc4ccccn34)nnc2c1,2%
Cc1ccc(N2CC(C(=O)N3CCc4ccccc43)CC2=O)cc1 (stereo unspecified),3%
O=C(Oc1cccc2ccccc12)c1ccco1,159%[activator]
COC(=O)c1ccccc1NC(=O)N1CCN(C(=O)c2ccco2)CC1,25%
N#Cc1ccccc1-c1ccc2ncnc(NCCN3CCOCC3)c2c1,?
N#C/C(=C\c1ccco1)Sc1nc2ccccc2s1,-8%
O=C(C1CCCN(S(=O)(=O)c2ccccc2)C1)N1CCN(c2ncccn2)CC1 (stereo unspecified),-6%
COc1cccc(-n2nnc3c(=O)n(CC(=O)NC4CCCC4)cnc32)c1,-1%
Cc1ccccc1NC(=O)CCN1CCN(C/C=C/c2ccccc2)CC1,13%
CSc1nc2ccccc2n1C(=O)NC1CCCCC1,10%
O=C(c1ccccn1)N1CCN(c2ccc(C(F)(F)F)cn2)CC1,4%
O=C1CSC(c2ccccn2)N1c1cccc(Cl)c1 (stereo unspecified),0%
C(CCc1nnc2c(n1)CCCC2)Cc1nnc2c(n1)CCCC2,2%[11.4 µM]
O=C(c1ccsc1)N1CCN(C(=O)c2cccs2)CC1,17%
COc1ccccc1NC(=O)c1ccc(CN2CCOCC2)cc1,-2%
O=S(=O)(c1ccc(F)cc1)N1CCN(Cc2ccccc2C(F)(F)F)CC1,5%
Cn1nnc2c(NCc3ccco3)nccc21,32µM*
CCn1cc(C(=O)N2CC(C)CC(C)C2)c(=O)c2cc(S(=O)(=O)N3CCOCC3)ccc21 (stereo unspecified),-7%
Cn1c(=O)c2cn(-c3ccc4c(c3)OCCO4)cc2n(C)c1=O,-19%
O=C(c1cccc(N2C(=O)C3CC=CCC3C2=O)c1)N1CCN(c2ccccc2)CC1 (stereo unspecified),-1%
CCn1c(CC(=O)Nc2ccccc2F)nnc1SCC(=O)N1CCN(c2ccccc2)CC1,10%
Cc1nnc2sc(-c3ccc(NC(=O)c4ccc(-c5ccc(Cl)cc5Cl)o4)cc3)nn12,16µM*

# Looked up by structure from the entries so far, 2 records:
SMILES,HSD17B inh
O=C(c1cccc(N2C(=O)C3CC=CCC3C2=O)c1)N1CCN(c2ccccc2)CC1 (stereo unspecified),-1%
Cn1nnc2c(NCc3ccco3)nccc21,32µM*

# (list continues)
SMILES,HSD17B inh
COc1ccc(C(C)=O)c(OC(=O)c2ccc(OC)c(OC)c2)c1,-4%
Nc1ncnc2c1ncn2[C@@H]1O[C@@H](COP(=O)(O)OP(=O)(O)OP(=O)(O)OP(=O)(O)OC[C@@H]2O[C@@H](n3cnc4c(N)ncnc43)[C@@H](O)[C@H]2O)[C@H](O)[C@@H]1O,3%
Nc1sccc1C(=O)c1ccc(Cl)cc1,-29%
COc1cccc(-c2ccc3ncnc(N4CCN(C)CC4)c3c2)c1,9%
COc1ccccc1NS(=O)(=O)c1ccc(Br)s1,1%
CC(=O)c1ccc(Cl)c(Cl)c1Cl,5%
O=C1OCCC1Sc1nnc(-c2ccco2)o1 (stereo unspecified),6%
CC(C)CNS(=O)(=O)c1ccc(S(=O)(=O)N2CCN(CCC#N)CC2)cc1,5%
O=C(CCC(=O)c1cccs1)OCC(=O)N1CCN(C(=O)c2ccco2)CC1,0%
COC(=O)c1cc(-c2ccc(Br)cc2)on1,11%
CCCCOc1ccc(OCCCC)c2c1NC1(N2)C(=O)N(C(C)=O)c2ccccc21,-2%
Cc1cc2c(c(=O)n1Cc1ccc3c(c1)OCO3)C(c1cccnc1)C(C#N)=C(N)O2 (stereo unspecified),6%
CN1CCC(=C2c3ccccc3Sc3ccccc32)CC1,9%
Cn1nnnc1SCC(=O)NCc1ccco1,-6%
CCOC(=O)Cn1c(=O)oc2cc(S(=O)(=O)N3CCn4c3nc3ccccc34)ccc21,10%
COCCCn1c(-c2ccsc2)nc2c1c(=O)[nH]c(=O)n2Cc1ccccc1,25µM*
COC1C=CO[C@@]2(C)Oc3c(C)c(O)c4c(O)c(c5c(nc6cc(C)ccn65)c4c3C2=O)NC(=O)/C(C)=C\C=CC(C)C(O)[C@@H](C)C(O)C(C)[C@@H](OC(C)=O)C1C (stereo partly specified),-9%
Cc1ccc(-n2ncc3c(=O)[nH]c(SCC(=O)N4CCCc5ccccc54)nc32)cc1,20%
CCOC(=O)N1CCN(c2c(N3CCN(c4cccc(C(F)(F)F)c4)CC3)c(=O)c2=O)CC1,12%
Cc1cccc(CCNC(=O)CN(C)S(=O)(=O)c2ccc3c(c2)c(=O)n(C)c(=O)n3C)c1,-5%
COc1cccc(Nc2ncc3ncc(=O)n(C)c3n2)c1,8%
O=C(Cn1ncc2c(=O)oc3ccccc3c21)Nc1nc2ccccc2s1,6%
CCn1c2ccccc2c2nnc(SCC(=O)Nc3ncccn3)nc21,-1%
COc1ccccc1NC1C=CS(=O)(=O)C1 (stereo unspecified),-2%
Cc1ccccc1NC(=O)Cn1c(C)nc2ccc(NC(=O)C3CC3)cc2c1=O,15%
O=C(c1ccco1)N1CCC[C@@]2(CCN(c3ncccn3)C2)C1,-29%
CC(C)N(C(=O)Cn1cnc2c(cnn2-c2ccccc2Cl)c1=O)C(C)C,-6%
COc1cc(NC(=O)c2ccccc2)cc(OC)c1,-2%
O=C(CCC(=O)N1CCc2ccccc2C1)N1CCN(S(=O)(=O)c2ccccc2)CC1,8%
COC(=O)c1ccc(/C(O)=C(\C#N)c2nc3ccccc3s2)cc1,10%
COc1ccc(-c2nnc(-c3cccs3)o2)cc1OC,32µM*
CCOC(=O)c1c(C)n(C)c2ccc(OC(C)C(=O)OC)cc12 (stereo unspecified),0%
COc1ccc(-c2cc(=O)c3ccccc3o2)cc1OC,16µM*
NS(=O)(=O)c1ccc(N=Nc2ccc(O)c(C(=O)O)c2)cc1,?
COc1ccccc1N1CCN(c2cc(N3CCCC3)nc(C)n2)CC1,-5%
CCc1nnc2sc(-c3ccc(NC(=O)c4ccco4)cc3)nn12,-4%
CC(C)OC(=O)c1c(N)sc2c1CCCC2,-14%
CC(C)c1nnc(NC(=O)CCN2C(=O)c3ccccc3C2=O)s1,14%
Cc1ccc2occ(CN3CCN(c4ccccc4)CC3)c(=O)c2c1,6%
CN(C)c1ccc(-n2cc3c(=O)n(C)c(=O)n(C)c3c2)cc1,?
CCOc1ccc(CN(Cc2ccco2)C(c2cccs2)c2nnnn2C(C)(C)C)cc1 (stereo unspecified),-6%
C=C(CC1([C@@H](NP(=O)(c2ccccc2)c2ccccc2)[C@H]2C[C@@H]2CCN(C(=O)OCC)S(=O)(=O)c2ccc(C)cc2)CC1)c1ccccc1,-9%
CCOc1ccc(OCC)c(NC(=O)CN2CCN(C(=O)c3ccco3)CC2)c1,2%
Cc1ccnc(NC(=O)C2CCN(S(=O)(=O)c3cccc4nonc34)CC2)c1,0%
COc1ccc(OC)c2[nH]c(=O)c(CCNC(=O)C(C)(C)C)cc12,-3%
CC(C)=CCC/C(C)=C/CO/N=C1/[C@H]2O[C@@H]2[C@@H](O)[C@H]2[C@H]1CCn1c(=O)n(C)c(=O)n12,2%[11.4 µM]
CCOC(=O)c1c(C)c(C(=O)Nc2cc(F)ccc2F)c(C)n1C,-2%
CCc1c(C(C)O)oc2ccc3c(C)cc(=O)oc3c12 (stereo unspecified),?
CCOc1cc(C(=O)NCc2nnc(SCC(=O)OC)n2C)cc(OCC)c1OCC,6%
CCn1c(SCC(N)=O)nnc1-c1ccc(S(=O)(=O)N2CCN(C)CC2)cc1,32µM*
# Carrying on.
SMILES,HSD17B inh
O=C(CSC1=NCCS1)Nc1nc2c(s1)CCCC2,?
O=C(Nc1ccc(SC(F)F)cc1)C1=COCCO1,-1%
CCCCCCNS(=O)(=O)c1ccc(Cl)s1,-10%
CCn1c(C)nc2cc(C(=O)OC(C(F)(F)C(F)F)C(F)(F)C(F)F)ccc21,-2%
CCOc1ccc(OCC)c(Nc2cc(C)nc3nc(C)nn23)c1,3%
O=C1C2C(C(=O)N1c1ccncc1)C1C=CC2C12CC2 (stereo unspecified),8%
COC(=O)CN(c1ccccn1)S(=O)(=O)c1ccccc1,25µM*
COC(=O)n1ccc(C(=O)Nc2ccccc2F)n1,5%
CNc1ccnc(-c2ccccc2CN(C)C)n1,-9%
Cc1ccc(CNc2oc(-c3cccs3)nc2C#N)cc1,25µM*
COc1cccc(N2CCN(CC(=O)c3c[nH]c4ccc(OC)cc34)CC2C)c1 (stereo unspecified),-3%
COCC(=O)Nc1sc2c(c1C(=O)OC)CCC(C)C2 (stereo unspecified),32µM*
COC(=O)N1CCC2(CCCN(Cc3nccs3)C2)CC1,7%
N#C/C(=C\c1ccc(O)c(O)c1)C(N)=O,-27%
COc1ccc2oc(C(=O)C3CC3)c(NC(=O)CCCN3C(=O)c4ccccc4C3=O)c2c1,0%
C=CCNC(=O)c1oc2ccc(S(=O)(=O)N(CC)CC)cc2c1C,-10%
O=C1CCCc2[nH]nc(-c3cccnc3)c21,2%
Cc1ccc(C(=O)Nc2ncc(Cc3ccccc3)s2)o1,-16%
Cc1noc(C)c1CSc1ncnc2sc3c(c12)CCC3,-1%
COC(=O)c1[nH]c(C)c(/C(O)=C2\C(=O)C(=O)N(CCN(C)C)C2c2ccco2)c1C (stereo unspecified),3%
